# Bioassay records from PubChem.
# NPYLR7 agonist = activates Aedes aegypti NPYLR7 receptor; AID 1259423; hit rate 0.15% among 270,000; HEK293T NPYLR7/Galpha15, GCaMP6s calcium fluorescence; activation, % at 10 µM; in the data active means activation above about 40%;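 further: 0% = vehicle and 100% = reference agonist at the receptor; some compounds past the cut are filed as inactive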
# NPYLR7 agonist max-min = further read-out of NPYLR7 agonist, marked with its call; activation, %; measured here: Max-Min RFU normalised activation; some inactives read as strong as hits;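 span of the calcium signal over five minutes; 0% = vehicle and 100% = native peptide agonist; compound fluorescence can raise it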
# Starred values were filed as active, the others as inactive; & = joins results of further samples.
SMILES,NPYLR7 agonist,NPYLR7 agonist max-min
CCc1ccc(Cn2ccc3c(-c4ccc(F)c(Cl)c4)c(OC(=O)N(CC)CC)ccc32)cc1,13,9
CC(C)(C)c1cc2nc(-c3ccc(F)cc3)cc(C(=O)N3CCC4(CC3)OCCO4)n2n1,-4,-3
CC(C)Cn1nnnc1SC(C)C(=O)N1CCN(c2ccccc2)CC1 (centres undefined),7,5
Cn1c(=NNC(=O)c2ccc(S(=O)(=O)N3CCCc4ccccc43)cc2)sc2ccccc21,-4,-11
O=C(c1ccc(CN2CCCCC2C2OCCO2)cc1)N1CCCC1 (centres undefined),-6,19
Cc1ccc(CNc2cccc(C(=O)N3[C@@H]4CC[C@H]3CC(O)C4)c2)cc1 (some centres undefined),1,0
C=Cc1ccc(Cn2ccn3nc(-c4ccc(C)c(C)c4)cc3c2=O)cc1,-1,-4
COc1ccc(CC2CN(C(=O)c3ccccc3Cl)CCO2)cc1 (centres undefined),4,-1
CCCCc1cn(CC2CCN(C(=O)c3cncc(C)c3)CC2)nn1,8,-1
CCc1ccc(C(=O)N2CCN(c3cc(Oc4ccccc4C)ncn3)CC2C)cc1 (centres undefined),7,7
CC(C)n1c(=O)c(C(=O)N2CCC(O)(c3ccccc3)CC2)cc2cccnc21,-7,-11
CC(=O)Nc1ccc(S(=O)(=O)Oc2ccc(Cl)cc2CN(Cc2ccc(F)cc2)C(=O)c2cccs2)cc1,30,26
O=P1(NCCCN2CCOCC2)C=C(c2ccccc2)SC(c2ccccc2)=C1,-1,-6
Cc1ccccc1C(=O)c1coc2ccc(Cl)cc2c1=O,1,-3
C=CCNc1c(Cl)cc(Cl)cc1C(=O)O,3,0
Cc1cnccc1N1CCN(C(=O)C2CC3(CCNCC3)CN2)CC1 (centres undefined),2&4,0&0
COc1ccc(CN2CCC2(C)C(=O)NCc2cccc3ccccc23)c2ccccc12 (centres undefined),4,1
Cc1noc(Cl)c1CCC(=O)NC(C)C1CC2CCC1C2 (centres undefined),-20,-20
CN(Cc1cccn1-c1ccccn1)C1CCCN(CCc2ccccc2)C1 (centres undefined),7,2
CCOC(=O)C1CN(C(=O)C2CC2C)CCN1C(=O)C1CC1C (centres undefined),1,1

# Copied from the results shown (7 entries):
SMILES,NPYLR7 agonist,NPYLR7 agonist max-min
CCc1ccc(Cn2ccc3c(-c4ccc(F)c(Cl)c4)c(OC(=O)N(CC)CC)ccc32)cc1,13,9
CC(C)(C)c1cc2nc(-c3ccc(F)cc3)cc(C(=O)N3CCC4(CC3)OCCO4)n2n1,-4,-3
CC(C)Cn1nnnc1SC(C)C(=O)N1CCN(c2ccccc2)CC1 (centres undefined),7,5
Cn1c(=NNC(=O)c2ccc(S(=O)(=O)N3CCCc4ccccc43)cc2)sc2ccccc21,-4,-11
O=C(c1ccc(CN2CCCCC2C2OCCO2)cc1)N1CCCC1 (centres undefined),-6,19
Cc1ccc(CNc2cccc(C(=O)N3[C@@H]4CC[C@H]3CC(O)C4)c2)cc1 (some centres undefined),1,0
C=Cc1ccc(Cn2ccn3nc(-c4ccc(C)c(C)c4)cc3c2=O)cc1,-1,-4

# Six compounds picked at random from those above, as already listed:
SMILES,NPYLR7 agonist,NPYLR7 agonist max-min
O=C(c1ccc(CN2CCCCC2C2OCCO2)cc1)N1CCCC1 (centres undefined),-6,19
CCCCc1cn(CC2CCN(C(=O)c3cncc(C)c3)CC2)nn1,8,-1
CC(C)Cn1nnnc1SC(C)C(=O)N1CCN(c2ccccc2)CC1 (centres undefined),7,5
COc1ccc(CC2CN(C(=O)c3ccccc3Cl)CCO2)cc1 (centres undefined),4,-1
Cc1ccccc1C(=O)c1coc2ccc(Cl)cc2c1=O,1,-3
Cc1cnccc1N1CCN(C(=O)C2CC3(CCNCC3)CN2)CC1 (centres undefined),2&4,0&0

# (further entries)
SMILES,NPYLR7 agonist,NPYLR7 agonist max-min
COc1ccc(-n2ccnc(SCc3ccccc3C)c2=O)cc1Cl,1,1
OC(COCc1ccccc1)C[N+]1(Cc2ccccc2)CCOCC1 (centres undefined),12,8
OC1CCN([C@@H]2CCN(c3nc(-c4ccccc4)no3)C[C@H]2O)CC1,-7,-6
O=C(CCc1nnc(CCc2ccccc2)o1)N1CCOc2ccccc2C1,11,9
CC(C)(C)OC(=O)N1C2CCC1CC(CC(=O)O)C2 (centres undefined),2,-1
COc1ccc2nc(S(=O)(=O)O)[nH]c2c1,4,5
CCCCc1ccc(C(=O)Nc2ccc(N3CCN(c4ccccc4OC)CC3)c(C(=O)NCC(C)C)c2)cc1,19,28
CC(C)NS(=O)(=O)c1cccc(C(=O)Nc2nc(C(C)(C)C)cs2)c1,15,6
Cc1ccc(S(=O)(=O)N2CCC[C@H]2C(=O)N2CCOC3CCCCC32)cc1 (some centres undefined),3,-8
CC(=NNC(=S)NC(C)C)c1ccco1,1,0
CN(CC(=O)N[C@@H]1C=C[C@H](CO)C1)Cc1ccccc1,5,7
Cc1cc(N/N=C\c2cccnc2)nc(-c2ccccc2O)n1,6,4
OC(COCc1ccco1)CN(Cc1ccccc1)CC1CC(c2ccc(Cl)c(Cl)c2)=NO1 (centres undefined),4,9
CC1Cc2ccccc2N1CCNC(=O)N1CCc2sccc2C1 (centres undefined),-25,-25
Cc1ncsc1CCN(C)C(=O)c1cc(C2CC2)[nH]n1,11,9
Cc1[nH]c2ccccc2c1C=Nc1c(C)n(C)n(-c2ccccc2)c1=O,-1,-4
Cc1cc(C)c(-c2c(O)c3c([nH]c2=O)CC(C)(C)CC3=O)c(C)c1,-2,-5
COc1ccc2oc(=O)c(C(=O)Nc3cccc(C(=O)O)c3)cc2c1,-1,-5
Cc1ccccc1C1(O)CCN(Cc2cccs2)C1 (centres undefined),1,2
O=C(C1CCC1)N1CCN(c2cnn(-c3ccccc3)c(=O)c2Cl)CC1,15,3
Cc1[nH]nc(NC(=O)NCC(F)(F)F)c1CC(C)C,8,6
Cc1cccc(N2C(=O)N(c3ccccc3Cl)C3CS(=O)(=O)CC32)c1 (centres undefined),-3,-6
O=C(c1ccc2c(c1)OCO2)N1CCC(c2cn(Cc3cccc(F)c3)c3ccccc23)CC1,5,5
C=CCNCC1CC(c2cccc(F)c2)=NO1 (centres undefined),-2,-4
COc1ccc(C2=CSC3=NCCN23)cc1F,5,1
CCCNC(=O)N1CCN(c2ccc(Cl)c(Cl)c2)C(=O)C1C (centres undefined),0,11
CC(C)c1ccc(NC(=O)C2CC(=O)N(N(C)c3ccccc3)C2)cc1 (centres undefined),-5,-11
COc1ccc(CCNc2nc(-c3ccc(F)cc3F)nc3ccccc23)cc1,1,4
O=C(Cc1ccc(F)cc1)Nc1cccc(-c2cccc(-c3ccc(F)cc3)n2)c1,-2,0
CC(C)C(N)C(=O)N1CCN(C(=O)CCC2CCCC2)C(C)C1 (centres undefined),20,13
Nc1cnc(-c2ccc(OC(F)(F)F)cc2)cn1,10,8
CCOc1cc(C2Nc3ccccc3N=C3CC(c4ccc(OC)cc4)CC(=O)C32)ccc1OC(=O)C1CC1 (centres undefined),-5,-4
CCOc1ccc(-c2cc(C(=O)NCc3cccc(OC)c3)c3ccccc3n2)cc1,15,14
O=C(c1ccc(Cl)cc1)N(Cc1nccn1Cc1cccc(C(F)(F)F)c1)CC1CC1,2,18
O=C(NCCc1csc2nc(-c3cccs3)nn12)c1cccc([N+](=O)[O-])c1,11,10
O=S(=O)(NCC1CCN(Cc2cccc(O)c2)C1)c1ccccc1 (centres undefined),5,2
Cn1c(SCc2cc(=O)n3ccsc3n2)nc2sc(-c3ccccc3)cc2c1=O,3,1
O=C(CC1CSc2nccc(=O)n21)NCC1CCCO1 (centres undefined),-2,-3
Cc1cccc(Nc2ncccc2C(=O)N(C)CC2OCCO2)c1C,-14,-17
NC(=O)C(NC(=O)C1CCN(c2ccc(C(F)(F)F)cc2[N+](=O)[O-])CC1)c1ccccc1 (centres undefined),3,3
COc1ccc(Cn2c(-c3c(OC)ccc4ccccc34)nc3ccccc3c2=O)c(OC)c1,7,5
O=S(=O)(c1cccs1)N1CCOc2cccnc21,18,9
CCCCS(=O)(=O)NC(C(=O)Nc1nnc(-c2cccc(C)c2)s1)C(C)CC (centres undefined),27,24
CCCN(C)c1cc(-c2ccccc2)nc(SCc2cccc(C(=O)N3CCCC(C(=O)OCC)C3)c2)n1 (centres undefined),11,-1
CC(COc1ccccc1)NCc1n[nH]c2c1CCCCC2 (centres undefined),2,-1
COc1cccc(-c2nccn2CCC2CCCN2C)c1OC (centres undefined),5,4
CC12CCC(C(=O)N3CCOCC3)(OC1=O)C2(C)C (centres undefined),16,7
CC(C)CCc1nc(N2CCN(C(=O)C(C)(C)CCl)CC2)c2cnn(-c3cccc(Cl)c3)c2n1,27,27
CN1C(=O)NC(c2cccc(OCc3ccccc3)c2)C2=C1CN(Cc1ccc(F)cc1)C2=O (centres undefined),7,17
COc1ccc(C(=O)N2CCN(C(=O)c3cc(OC)c(OC)c(OC)c3)CC2)cc1,1,13
COC(=O)C1=C(C)NC(=S)NC1c1ccc(OC)c(OC)c1 (centres undefined),10,10
O=C(NC1CCC(n2cnnc2)CC1)c1ccccc1Oc1ccccc1 (centres undefined),1,0
Cc1ccc(C(C)NCc2ccc(S(C)=O)cc2)o1 (centres undefined),-1&-3,-4&-3
COc1ccc2nc(NC(=O)C3CCCCC3)sc2c1,-6,-11
CC(C)NC(=O)C1(C)CCN1C(=O)C1(c2ccccc2)CC1 (centres undefined),14,20
O=C(CCCn1ncn2c(cc3occc32)c1=O)NCC1CCCO1 (centres undefined),6,3
Cc1ccccc1CSc1nc2c([nH]c3ccccc32)c(=O)n1C,-1,9
Cc1c(F)cccc1N1C(=O)CSC1c1ccc(NC(=O)c2ccc(C(F)(F)F)cc2)cc1 (centres undefined),3,3
O=c1[nH]cc(S(=O)(=O)Nc2ccc(F)c(Cl)c2)c(=O)[nH]1,-7,-15
O=C(NCCN1CCOCC1)[C@@]1(OCc2cccc(Cl)c2)CC(OCc2c(F)cccc2F)[C@H](O)[C@H](O)C1 (some centres undefined),18,11

# Following part.
SMILES,NPYLR7 agonist,NPYLR7 agonist max-min
O=S(=O)(c1ccc(F)cc1F)N1CCCCC1,3,1
Cn1ccnc1-c1ccc(NCCn2ccc3ccccc32)nn1,4,3
O=C(NC(Cn1cccn1)c1ccccc1)c1cccc(-n2cnnc2)c1 (centres undefined),-1,-7
COc1ccc(NC(=O)CSc2nc(=O)n(CCCN(C)C)c3c2CCC3)cc1OC,0,-3
CC(CNC(=O)c1cc2ccccc2o1)N1CCCCC1 (centres undefined),-1,-2
CCOCCNC(=O)CSc1nc2cc(C(=O)OCC)ccc2n1Cc1cccc(F)c1,23,31
COC(=O)c1ccc(CN(C)C(=O)c2ccc3c(c2)CCCN3S(C)(=O)=O)cc1,1,2
O=C(C[N+]12CN3CN(CN(C3)C1)C2)c1ccc(Cl)cc1,-4,-6
CCN1CCN(C(=O)c2ccc(CSc3nnc(-c4ccncc4)n3CC)cc2)CC1,7,12
Cc1cc(C)c(NC(=O)c2nnn(Cc3nc(-c4ccccc4)oc3C)c2C)c(C)c1,2,-3
Cc1ccc(C(=O)N2CCC(n3c(Cc4ccccc4)nc4ccccc43)CC2)s1,2,12
COCc1c(Br)c(C)nc(OCC(=O)N/N=C\c2cccc(OC)c2)c1C#N,-9,-17
CN(c1ccccc1)c1ccncc1N,-3,3
CC(=O)NC1CCN(C(=O)CC(c2ccccc2)c2ccc(F)cc2)CC1 (centres undefined),-2,0
COC(=O)c1ccccc1-c1ccc(C2NC(=O)c3ccccc3N2C)o1 (centres undefined),2,3
O=C(NC(c1ccccc1)c1ccccn1)C1CCN(CCOc2ccc(Br)cc2)CC1 (centres undefined),8,-1
C=CCNC(=O)C(=O)NCCCO,2,8
COCC1CCCCN1C(=O)CCc1nnc(Cc2cc(OC)ccc2OC)o1 (centres undefined),5,3
Cc1cc(C(=O)NCC2CCN(C)C2)c(NC(=O)C(C)(C)C)s1 (centres undefined),7,3
CCN(CC)C(=O)C(C1CCCC1)N1CCN(C(=O)c2cccc(F)c2)CC1 (centres undefined),-5,-4

# Given with two lines to a compound: 4 of the compounds above.
# Second line of a record: NPYLR7 agonist, NPYLR7 agonist max-min
> CC(=O)NC1CCN(C(=O)CC(c2ccccc2)c2ccc(F)cc2)CC1 (centres undefined)
→ -2, 0
> COCC1CCCCN1C(=O)CCc1nnc(Cc2cc(OC)ccc2OC)o1 (centres undefined)
→ 5, 3
> COCc1c(Br)c(C)nc(OCC(=O)N/N=C\c2cccc(OC)c2)c1C#N
→ -9, -17
> Cn1ccnc1-c1ccc(NCCn2ccc3ccccc32)nn1
→ 4, 3

# (next part)
SMILES,NPYLR7 agonist,NPYLR7 agonist max-min
O=C(NCc1cc(-c2ccccc2F)on1)C1CC1,1,1
CSCCC(C(=O)O)n1c(O)c(C2=c3cc(Br)ccc3=NC2=O)sc1=S (centres undefined),-3,-8
CN(C)CC(C)(C)CNC(=S)NCc1ccc2c(c1)OCO2,3,10
COc1ccc(C(=O)Nc2c(-c3cc(F)ccc3F)nc3cc(C)ccn23)cc1,-6,-3
O=C(/C=C/c1ccccc1)N1CC[C@@H](c2ccc3c(c2)OCO3)[C@H](O)C1,4,3
O=c1c(Cl)c(Cl)cnn1CN1CCCC1c1nc2ccccc2s1 (centres undefined),-6,-4

# An excerpt; count on the stated rates, not on these rows.
